Bst PK mod: Pyruvate Kinase; partly purified Bacillus stearothermophilus pyruvate kinase, luminescence ATP production; ribose 5-phosphate activator present at AC10; Potency, µM; hit rate 1.2% among 51,000; AID 361, 2006; in the data active means potency below about 11 µM; inconclusive means mostly about 12 µM to 25 µM; inactive means weaker than that;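 the screen sought inhibitors and activators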;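 also: potency is read from the fitted curve at half-maximal effect; scaled between full activation by ribose 5 phosphate and full inhibition by luteolin; about four in five hits inhibit and the cells do not say which; series up to 57 µM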
YjeE inh: qHTS Assay for Inhibitors of YjeE | tRNA threonylcarbamoyladenosine biosynthesis protein TsaE (Escherichia coli (strain … | purified YjeE, fluorescence polarisation of a bound ADP probe | Potency, µM | hit rate 0.05% among 71,000; active = well fitted falling curve; inconclusive = weaker or top-dose-only fall, or a rising curve; inactive = flat or poorly fitted curve;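 also: top concentration of the series not given in the record; excess ADP was the control for the full effect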
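Fluorescence polarization of a BODIPY Texas Red–ADP probe (2 uM) bound to purified YjeE (10 uM) was read after 15 min room-temperature incubation with compounds. Loss of polarization marks inhibitors; ADP serves as titrated control.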
* = called active by the depositor; i = inactive; ? = inconclusive; · = no result given.

Compound	Bst PK mod	YjeE inh
COc1ccc(-c2cc(C(F)(F)F)n3nc(C(=O)O)nc3n2)cc1	>57	i
CC(C)(C)c1cc(C(=S)N2CCN(CCO)CC2)cc(C(C)(C)C)c1O	>57	i
CC(C)c1cc(C(=O)NC2CCCCC2)no1	>57	i
CCN1CCN(Cc2nc3c(c(=O)n(C)c(=O)n3C)n2CCCc2ccccc2)CC1	>57	i
CN(C)/C=C1/C(=O)Nc2ccccc21	·	i
O=C(Cn1c(=O)oc2ccccc21)c1ccccc1	>57	i
CC1(C)Cc2cccc(OCC(O)CN3CCN(c4ccccn4)CC3)c2O1 (stereo not given)	>57	i
CCCn1cc(SCC(=O)NCc2ccco2)c2ccccc21	>57	i
CCN(C(=O)CSc1ccc2c(c1)OCCO2)C1CCS(=O)(=O)C1 (stereo not given)	>57	i
CC(C)(C)OC(=O)N[C@H](Cc1ccccc1)C(=O)N1CCC(C(=O)O)CC1	>57	i
CN(C)CCNC(=O)c1coc(=O)c(Br)c1	>57	i
CCC(=O)Nc1nonc1-c1nc2ccccc2n1CC(C)C	>57	i
CC(C)NC[C@@H](O)COc1ccc(COCCOC(C)C)cc1	·	i
c1ccc(CC2CCN(Cc3nc(-c4ccccc4)no3)CC2)cc1	>57	i
Cc1nc2[nH]c(=O)c3c(n2n1)NC1=C(C(=O)CC(C)(C)C1)C3c1ccc(F)cc1 (stereo not given)	>57	i
O=C(Cc1cccs1)Nn1c(Cc2cccs2)nc2ccccc2c1=O	>57	i
C=CCn1c(NCCc2ccccc2)nc2c1c(=O)n(C)c(=O)n2C	>57	i
COc1ccc(CN2CCN(C)CC2)cc1OCc1ccccc1	>57	i
O=C(COC(=O)c1ccc(Br)o1)NCCCc1ccccc1	>57	i
O=C(C1CCN(S(=O)(=O)c2cccc3cccnc23)CC1)N1CCN(C2CCCC2)CC1	·	i
Cc1ccc(C)c2[nH]c(=O)c(C(c3nnnn3Cc3ccco3)N3CCc4ccccc4C3)cc12 (stereo not given)	>57	i
c1ccc(N2CCN(c3ncnc4c3oc3ccccc34)CC2)cc1	·	i
Cn1c(=O)oc2cc(S(=O)(=O)N3CCC(C(=O)NCc4cccs4)CC3)ccc21	·	i
O=C(Nc1cccc(OC(F)(F)F)c1)c1ccc(Br)o1	·	i
CN(C)c1ccc(C2C=C(c3ccc(Cl)cc3OC(F)F)Nc3ncnn32)cc1 (stereo not given)	>57	i

Going on with the list:
Compound	Bst PK mod	YjeE inh
Cc1nnc(SCC(=O)N2CCC(C(=O)Nc3nccs3)CC2)n1Cc1ccccc1	>57	i
Nc1nnnn1/N=C/c1ccccc1OCc1ccc(Cl)cc1Cl	>57	i
COc1ccc(-c2cc(C(=O)Nc3ccc(C)cc3)no2)cc1	>57	i
Brc1ccc(-c2cnc(-c3cccs3)o2)cc1	1.31*	i
Cc1ccc2c(c1)cc(CN(Cc1ccco1)C(=O)COc1ccccc1)c1nnnn12	>57	i
CCC(C)Nc1nc(OCC(F)(F)F)nc(OCC(F)(F)F)n1 (stereo not given)	>57	i
O=C(CSCc1nc2ccccc2[nH]1)N1CCN(c2cccc(Cl)c2)CC1	>57	i
CC(C)Oc1ccc(N2CC(C(=O)Nc3ccc4c(c3)OCO4)CC2=O)cc1 (stereo not given)	·	i
Oc1ccccc1CNc1nc2ccccc2n1CCN1CCCCC1	·	i
CCC(=O)Nc1cc(C)c(NC(=O)CCc2ccccc2)cn1	>57	i
CCC(SCC(=O)OC)C(=O)Nc1nnc(C(C)C)s1 (stereo not given)	·	i
Cc1cc(NC(=O)CS(=O)(=O)c2cn(Cc3cccc(F)c3)c3ccccc23)no1	>57	i
COc1ccc(OC)c(S(=O)(=O)Nc2ccc(OCC(=O)O)cc2)c1	·	i
CCN(C(=O)CN1CCCc2ccccc21)c1c(N)n(Cc2ccccc2)c(=O)[nH]c1=O	>57	i
Cn1c(CCN2CCCCC2)nc2cc(NC(=O)NC3CCCCC3)ccc21	>57	i
C=CCn1cc(Cl)c(=O)n(CC=C)c1=O	>57	i
N=c1c(C(=O)NCc2ccccc2)cc2c(=O)n3ccccc3nc2n1CCCN1CCOCC1	>57	i
O=C1CCCc2c1[nH]c1c(Br)cccc21	·	i
N#Cc1nc(-c2ccco2)oc1NCc1ccco1	>57	i
Cc1ccc(S(=O)(=O)N2CCN(S(=O)(=O)N(C)C)CC2)cc1	>57	i
COCC(=O)N1CCC2(CCN(Cc3ccc(C#N)cc3)CC2)CC1	·	i
COc1ccc(NC(=O)N2CCCC3(CCN(C(=O)c4ccc(OC)cc4)CC3)C2)cc1	·	i
O=C(NCC1CCCO1)c1ccc(/C=N/O)nc1 (stereo not given)	>57	i
CCOC(=O)C(CC(=O)O)N1CCCCC1 (stereo not given)	>11.4	·
O=C1CCCC2=C1C(c1ccsc1)CC(=O)N2c1ccccc1 (stereo not given)	>57	i

Exported field by field: 2 of the compounds above
COc1ccc(OC)c(S(=O)(=O)Nc2ccc(OCC(=O)O)cc2)c1
- Bst PK mod: ·
- YjeE inh: i

CCN(C(=O)CN1CCCc2ccccc21)c1c(N)n(Cc2ccccc2)c(=O)[nH]c1=O
- Bst PK mod: >57
- YjeE inh: i

The main list resumes, starting two compounds before the break.
Compound	Bst PK mod	YjeE inh
CCOC(=O)C(CC(=O)O)N1CCCCC1 (stereo not given)	>11.4	·
O=C1CCCC2=C1C(c1ccsc1)CC(=O)N2c1ccccc1 (stereo not given)	>57	i
CCCn1c(=NC(C)=O)c(C(=O)OCC)cc2c(=O)n3ccccc3nc21	>57	i
CC(C)COC(=O)C1C2C=CC3(CN(C4CCCC4)C(=O)C13)O2 (stereo not given)	·	i
COc1ccccc1NC(=O)c1sc2nc(-c3ccco3)ccc2c1N	>57	i
Cc1nc2sc3c(c2c(=O)o1)CCC3	>57	i
CCOC(=O)C1CCCN(C(=O)C2CCN(c3nnc(-n4cccc4)s3)CC2)C1 (stereo not given)	·	i
Cc1cc(C(=O)Nc2cccc(O)c2)co1	·	i
O=C(Nc1cccc(O)c1)c1cccc(S(=O)(=O)N2CCCC2)c1	>57	i
Cc1ccc(-c2cc(C(=O)Nc3cccnc3)c3ccccc3n2)o1	·	i
CCOC(=O)c1c(-c2ccc(C)s2)csc1NC(=O)c1ccco1	>57	i
Cc1onc(-c2ccccc2)c1C(=O)Nc1cccc2nsnc12	>57	i
Cc1ccnc(NC(=O)CCC(=O)N(CC(=O)NC2CCCCC2)Cc2ccc3c(c2)OCO3)c1	>57	i
O=C(CCCN1C(=O)CCC1=O)Nc1ccc2c(c1)OCO2	>57	i
CC1Cc2ccccc2N1C(=O)Cn1nc(C(=O)O)c2ccccc2c1=O (stereo not given)	>57	i
COc1ccccc1-n1cnnc1SCC(=O)c1cc(C)n(Cc2cccs2)c1C	>57	i
CC(C)NCC(O)Cn1c2c(c3ccccc31)CCc1c-2cnn1-c1ccccc1 (stereo not given)	?	i
COc1ccc(C(=O)NCc2ccccc2OC)c(OC)c1	·	i
Cc1cc(NC(=O)c2cc(-c3ccco3)on2)nn1Cc1ccc(Cl)cc1	>57	i
COC(=O)CSC1=C(C#N)C(c2ccccc2)CC(=O)N1 (stereo not given)	>57	i
CCN(Cc1cc2cc(C)ccc2[nH]c1=O)S(=O)(=O)c1ccccc1	>57	i
O=C1NC(c2ccc3c(c2)OCO3)Nc2ccccc21 (stereo not given)	>57	i
N#Cc1c(/N=C/c2cccs2)sc2c1CCC2	?	i
C=CCNS(=O)(=O)c1ccc(OCC(=O)OCC)cc1	>57	i
CC1(C(=O)NC2CCCCCC2)CCC(=O)N1Cc1ccc2c(c1)OCO2 (stereo not given)	>57	i
CCn1c(SCC(=O)NCC2CCCO2)nc2c(c1=O)SC(C)C2 (stereo not given)	·	i
CCOC(=O)c1c(C)n(CCO)c2ccc(O)cc12	>57	i

(list continues)
Compound	Bst PK mod	YjeE inh
Cc1ccc(-n2nnnc2SCC(=O)c2c(N)n(CC(C)C)c(=O)n(C)c2=O)cc1	>57	i
Cc1noc(C)c1C(=O)Nc1nc(C23CC4CC(CC(C4)C2)C3)cs1	>57	i
CCOC(=O)CC(C(=O)OCC)P(=O)(c1ccccc1)c1ccccc1 (stereo not given)	·	i
CS(=O)(=O)N1CCC[C@@]2(CCN(c3ccncc3)C2)C1	·	i
COc1ccc2cc(C(=O)OC(C)C)sc(=O)c2c1OC	>57	i
CCC(O)CNc1nc(-n2nc(C)cc2C)nc2sc3c(c12)CCCC3 (stereo not given)	>57	i
NC(=O)c1ccccc1NC(=O)CN1CCOCC1	>57	i
CC(C)[C@@H](CC(=O)N[C@@H]1CCNC[C@H]1C(=O)N[C@H](CC(=O)N[C@@H](CCC(=O)O)CC(=O)O)Cc1c[nH]c2ccccc12)NC(=O)C[C@H](Cc1c[nH]c2ccccc12)NC(=O)[C@@H]1CCCC[C@H]1N	·	i
CCc1cc(Br)ccc1NC(=O)C1CCCO1 (stereo not given)	>57	i
CCOc1ccc(S(=O)(=O)n2nnc3ccccc32)cc1C	>57	i
CCOc1ccc2[nH]c(=O)c(CN(C(=O)N3CCOCC3)C3CC3)cc2c1	>57	i
Cc1cc(OCC(=O)O)c2cccc(C)c2n1	>57	i
O=C(CSc1ncnc2c1cnn2-c1ccccc1)Nc1ccc2c(c1)OCO2	>57	i
O=C1CCCN1CCC1CCN(C(=O)Nc2ccccc2)CC1	>57	i
N#CC1(O)CCCCC1	·	i
COc1ccc(-c2noc(COc3ccc(C)c(C)c3)n2)cc1OC	>57	i
C[C@H](O)CO[C@H]1[C@H]2O[C@H]3[C@H](O)[C@@H](O)[C@@H](O[C@H]4[C@H](O)[C@@H](O)[C@@H](O[C@H]5[C@H](O)[C@@H](O)[C@@H](O[C@H]6[C@H](O)[C@@H](OC[C@H](C)O)[C@@H](O[C@H]7[C@H](O)[C@@H](OC[C@H](C)O)[C@@H](O[C@H]8[C@H](O)[C@@H](O)[C@@H](O[C@@H]([C@@H]1O)[C@@H](CO)O2)O[C@@H]8CO)O[C@@H]7CO)O[C@@H]6CO)O[C@@H]5CO)O[C@@H]4CO)O[C@@H]3CO	·	i
COc1cccc(C2CC(c3cccs3)Nc3ncnn32)c1 (stereo not given)	>11.4	i
CCc1ccc(OCC(=O)N(C)CCC#N)c(Br)c1	>57	i
O=C(O)CCc1ccc(-c2ccc(F)cc2)n1NC(=O)c1ccco1	>57	i
CC(=O)C1C(=O)CC(C)(O)C(C(C)=O)C1c1ccc(N(C)C)cc1 (stereo not given)	>57	i
CCn1c(-c2ccc3[nH]c(C)c(C)c3c2)n[nH]c1=S	·	i
NC(=O)CN1C(=O)C2C3C=CC(C3)C2C1=O (stereo not given)	>57	i
CCC(NC(=O)c1ccccc1NC(=O)c1ccco1)C(=O)NC1CCCCC1 (stereo not given)	·	i
Cc1c(=O)n(OCc2ccccn2)c2ccccc2[n+]1[O-]	>57	i

Later entries.
Compound	Bst PK mod	YjeE inh
C[N+](C)(C)CCN[N@@+]1(C)CCCc2ccccc21	·	i
O=C(NC1CCCCC1)C(c1ccco1)N(Cc1cccs1)C(=O)Cn1nnc2ccccc21 (stereo not given)	>57	i
CN1CCN(CCCNC(=O)c2cc3c(-c4ccc(Cl)cc4)nn(C)c3s2)CC1	·	?
O=C(COc1ccc(Cl)cc1)NCc1nnc(SCC(=O)N2CCCCC2)o1	>57	i
Cc1cc(OCc2nc(-c3cccnc3)no2)c(C)cc1Br	>57	i
COc1ccc(S(=O)(=O)N2CCCC(C(=O)Nc3ccc(NC(=O)c4ccccn4)cc3)C2)cc1 (stereo not given)	>57	i
Cc1nn(-c2ccccc2)c2sc(C(=O)c3c(N)n(C)c(=O)n(C)c3=O)cc12	>57	i
COC(=O)C1C(=O)c2c([nH]c(C(=O)OC3CCCC3C)c2C)CC1C (stereo not given)	·	i
O=C(Cn1cnc2scc(-c3ccccc3)c2c1=O)N1CCOCC1	>57	i
COc1ccccc1CC(=O)Nc1ccc(OC)c(OC)c1	·	i
CCCc1nc2ccccc2c(=O)n1/N=C/c1ccc(O)cc1	>57	i
CCOc1ccc(NC(=O)CN(c2ccc(OC)cc2)S(C)(=O)=O)cc1	·	i
CC(=O)N(Cc1cc(=O)[nH]c2ccccc12)c1ccccc1	>57	i
COc1ccc(OC)c(NC2c3ccccc3C(=O)N2Cc2ccc3c(c2)OCO3)c1 (stereo not given)	·	i
COc1ccc(CN/C(C)=C(/C#N)C(N)=O)cc1OC	>57	i
O=Nc1c(-c2c(O)[nH]c3ccccc23)[nH]c2ccccc12	·	i
Cc1c(C(=O)NCc2ccccc2)oc2ccc(S(=O)(=O)N3CCC4(CC3)OCCO4)cc12	>57	i
Cc1occc1C(=O)N1CCCc2ccccc21	·	i

Entries above shown as hits in Bst PK mod.
Compound	Bst PK mod	YjeE inh
Brc1ccc(-c2cnc(-c3cccs3)o2)cc1	1.31*	i

Screens: PubChem BioAssay, National Center for Advancing Translational Sciences (NCATS)

These rows are one share of the data, so the mix of outcomes need not match the whole.
